# ClpP mod – qHTS Assay for Activators of ClpP; hit rate 1.9% among 340,000; AID 651965, 2013; purified B. subtilis ClpP, FRET peptide cleavage, 20 min; ATP-dependent Clp protease proteolytic subunit (Bacillus subtilis (strain 168)), P80244; Potency, µM (titrated, usually from 57.5 µM), for inactives: at the highest dose activity change, negative = active; active = well fitted falling curve with a large enough effect; inconclusive = small, poorly fitted or top-dose-only effect; inactive = no such curve, though single readings can be large or run the other way; further: potency means the concentration at half of the fitted maximal effect; the source files actives as falling curves though it sought activators and does not explain the sign; nearly all actives have a fitted effect of over 65% in size; many hits overshoot -100%
# Target sequence (P80244 whole entry, looked up): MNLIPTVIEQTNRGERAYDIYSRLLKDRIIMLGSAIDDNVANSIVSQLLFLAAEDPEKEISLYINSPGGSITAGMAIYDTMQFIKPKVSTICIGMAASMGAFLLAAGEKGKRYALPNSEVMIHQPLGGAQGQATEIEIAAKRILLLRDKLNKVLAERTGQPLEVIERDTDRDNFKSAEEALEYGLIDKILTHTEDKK
#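 FRET quenching reversal measured ClpP activation: 10 microg/mL B. subtilis ClpP at pH 8 with the FRET-FV decapeptide, read at 430 nm after 320 nm excitation. The 20-min minus 0-min signal was scaled between DMSO/no-enzyme wells and ADEP (5.8 microM final).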
# TRPML1 ag – agonists of human TRPML1 channel; hit rate 0.12% among 410,000; activation, % (test concentration not listed); Q9GZU1; TRPML1-expressing cells, Ca2+ dye fluorescence, FDSS; host cell line not named in the record; reference of the full effect not given here; AID 624414; in the data active = activation above about 50%; inconclusive = about 30% to 50%; inactive = below about 30%; further: 0% is about no effect; the text of the record puts the active cut at 80%
# Target sequence (Q9GZU1 whole entry, looked up): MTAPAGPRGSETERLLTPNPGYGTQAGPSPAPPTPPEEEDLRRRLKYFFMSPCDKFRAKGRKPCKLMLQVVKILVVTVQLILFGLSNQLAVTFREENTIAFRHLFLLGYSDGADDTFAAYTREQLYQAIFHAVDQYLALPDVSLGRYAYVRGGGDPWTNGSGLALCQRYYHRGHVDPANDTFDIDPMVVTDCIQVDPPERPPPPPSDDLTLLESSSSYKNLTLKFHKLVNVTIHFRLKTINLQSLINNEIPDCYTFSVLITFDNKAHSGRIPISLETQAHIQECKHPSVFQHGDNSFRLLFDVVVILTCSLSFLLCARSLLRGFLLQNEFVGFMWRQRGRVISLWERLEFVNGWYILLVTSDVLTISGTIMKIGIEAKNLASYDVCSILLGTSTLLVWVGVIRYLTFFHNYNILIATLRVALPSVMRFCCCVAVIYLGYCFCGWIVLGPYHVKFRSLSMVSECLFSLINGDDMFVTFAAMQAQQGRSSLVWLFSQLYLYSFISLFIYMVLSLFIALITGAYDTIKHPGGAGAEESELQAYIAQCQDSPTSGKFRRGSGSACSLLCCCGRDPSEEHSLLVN
#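 Tet-induced TRPML1-DL cells, 1,500 per well, cultured overnight, were loaded with a no-wash Ca2+ dye for 45–90 min. Calcium fluorescence was recorded on the FDSS for 110 s after compound addition, before the EC80 agonist (4 uM 54-4) was added.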
# TRPV1 PAM – human TRPV1 potentiation; AID 540277; hit rate 0.02% among 320,000; TRPV1-expressing cells, Fluo-8 calcium influx, capsaicin EC20 potentiation; host cell line not named in the record; control for the full effect not named in the record; potentiation, % at 8.33 µM; Q8NER1; active means potentiation above 80%; inconclusive means 30% to 80%; inactive means below 30%; further: 0% is about no effect
#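 TRPV1-expressing cells were cultured overnight at 35.5C and loaded with Fluo-8 calcium dye for 40 to 90 min at room temperature. After a 10 s baseline, compound was added and calcium influx was read kinetically for 3 min (ex 480/em 520 nm).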
# TRPML1 inh – blocks the human TRPML1 channel; TRPML1-inducible cells, Ca2+ dye fluorescence, FDSS; active compounds read low; inhibition of EC80 agonist-evoked calcium signal; activity change, negative = inhibition, % (no concentration beside the values); hit rate 0.02% among 390,000; in the data active means activity change below about -50%; inconclusive means about -30% to -50%; inactive means above about -30%;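 further: stimulus is agonist 54-4 at its EC80 concentration; on the % scale 0 is the no-effect control and ±100 the full control effect; compound concentration not given in the record; the text of the record puts the active cut at -80%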
#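 Calcium fluorescence in TRPML1-DL cells induced overnight with Tet: a 110 s read after compound pin addition, then a 110 s antagonist read after challenge with 54-4 at 4 uM final (EC80).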
# Menin-MLL FL inh – inhibitors of human menin-MLL interaction, wild-type MLL peptide. Fluorescence polarization, fluorescein-MLL peptide displacement from menin. FP activity change, % at 61.4 µM. 290,000 tested, under 10 active; inconclusive = falling polarisation curve, or a change in total fluorescence; inactive = total fluorescence flat and polarisation flat or rising; no compound was filed as active; the % refers to the polarisation; negative = inhibition;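 further: % of control where 0% means no effect; inhibitors lower the polarisation; unlabelled MLL peptide was the positive control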
# Sfp inh – Sfp phosphopantetheinyl transferase inhibition; Potency, µM, without a hit: max response, negative = inhibition, hits mostly inhibitors; AID 1490; hit rate 3.5% among 310,000; Biochemical Sfp PPTase activity, qHTS; Q9F4F7; active means well fitted inhibition curve with a large enough effect; inconclusive means small, poorly fitted or top-dose-only effect, or another doubt; inactive means no such curve, though single readings can be large or run the other way;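 further: the enzyme is Sfp with the accession as filed and its product quenches rhodamine fluorescence; potency means the concentration at half of the fitted maximal effect; 0% = enzyme reaction without inhibitor and -100% = no enzyme wells; top concentration of the series not given in the record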
#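 Buffer: 50 mM Hepes-Na pH 7.6, 10 mM MgCl2, 0.01% Nonidet P-40, 0.01% BSA. Enzyme 15 nM, pre-exposed to compound 15 min; substrates then added and fluorescence change tracked over 30 min.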
# PINK1 expr mod – modulators of PINK1 expression; Potency, µM (titrated, usually from 76.6 µM), for the others: at the top dose activation (PINK1 increase), usual class: activators; PINK1 immunofluorescence, high-content cytometry, 24 h; hit rate 0.2% among 410,000; active = well fitted activation curve with a large enough effect; inconclusive = small, poorly fitted or top-dose-only effect; inactive = flat fitted curve, though single readings scatter; cell line not stated here;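 further: potency means the concentration at half of the fitted maximal effect; % of control where 0% means no effect; nearly all actives have a fitted effect of over 65% in size; a mitochondrial uncoupler was the plate control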
#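 Measures PINK1 amount and localization on or inside mitochondria by immunofluorescence. Stable cells get compounds at 5 concentrations for 24 hours before fixation and staining; CCCP controls included.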
# Active calls of the source: *; u = inconclusive; x = not tested or not shown; & = joins results of further samples; [ ] = dose if it differs, or a comment.
SMILES,ClpP mod,TRPML1 ag,TRPV1 PAM,TRPML1 inh,Menin-MLL FL inh,Sfp inh,PINK1 expr mod
COC(=O)C1=CN(c2cc(C)cc(C)c2)C=C(C(=O)OC)C1c1cccc(F)c1,3.6%,-0.3,-1.5,-10.9,-7.7,-18.8%,1.4%
COc1ccc(-n2c(SCC(=O)NCc3ccccc3)nc3c([nH]c4ccccc43)c2=O)cc1,3.8%,0.8,x,17.9,x,x,5.1%
CN(C)S(=O)(=O)c1cc(C(=O)O)c(NC2CCCCC2)cc1Cl,-3.7%,0.5,2.6,4.8,-1.2,9.1%,3.9%[38.3 µM]
N#Cc1nnn2c1nc(N)c1c(F)cccc12,x,-0.3,x,-15.9,x,x,1.7%
CN(C)CCNS(=O)(=O)c1ccc(N2CCN(c3ccc(F)cc3)CC2)c([N+](=O)[O-])c1,-3.7%,0.8,18.0,-5.5,-1.1,-4.9%,-2.0%
O=C(NCC(c1ccco1)N1CCN(c2ccc(F)cc2)CC1)C(=O)NC1CCCC1 (stereo not drawn),-1.3%,1.0,-1.3,10.2,x,x,13.9%
Cc1ccc(CNC(=O)Cn2ccc3cc(S(=O)(=O)N4CCCC4)ccc32)o1,-4.6%,0.7,3.5,-19.0,1.2,50.1µM*,0.6%
CN(C)CCCN(C(=O)c1ccc(C(=O)c2ccccc2)cc1)c1nc2c(F)cccc2s1,-2.5%,0.1,5.6,8.8,x,-17.8%,-1.7%
O=C1OC(c2ccc3c(c2)OCO3)=N/C1=C\c1ccc(C(=O)O)cc1,x,0.5,4.3,6.5,u,7.6%,-0.8%
CCOC(=O)N1CCN(C(=O)CSCc2ccc(Br)cc2)CC1,-5.5%,3.5,-29.2,9.8,2.6,-12.5%,0.4%
CCOc1ccc(C(=O)N[C@H](C(=O)O)C(C)C)cc1,-0.4%,0.4,18.6,-7.6,0.3,15.4%,0.7%
COCC1CCN(C(=O)C2CCC(=O)N(CCc3cccc(F)c3)C2)CC1 (stereo not drawn),0.4%,-0.3,2.2,10.3,x,5.4%,1.4%
O=C(c1cccs1)N1CCN(Cc2cccnc2)CC1,-2.2%,1.2,-12.5,3.2,1.3,u,-0.7%
COC(=O)c1ccccc1OCc1cccc(C)n1,-0.3%,-0.2,-5.3,2.9,1.1,14.6%,-0.9%
O=C(OCC(=O)N1CCCc2ccccc21)c1cc(S(=O)(=O)N2CCOCC2)ccc1O,4.4%,-0.4,10.5,-3.7,x,x,1.0%
CS(=O)(=O)c1ccc(C(=O)N2CCN(C(=O)c3ccco3)CC2)cc1,0.4%,-0.2,0.1,18.2,x,x,2.7%
CC(=O)c1cccc(NC(=O)C2C(c3ccccc3)C2(Cl)Cl)c1 (stereo not drawn),x,0.3,-22.2,12.7,-0.3,15.5%,4.2%
O=C(Nc1ccc(Cl)cn1)c1cccnc1,1.1%,-0.7,7.2,0.2,0.0,16.4%,10.4%
O=C(COC(=O)Cn1cnc2ccccc2c1=O)Nc1ccc(Cl)c(C(F)(F)F)c1,4.3%,0.6,-7.1,2.0,6.4,-1.2%,0.2%
Cc1ccc(C(=O)OCC(=O)c2ccc[nH]2)s1,1.6%,0.8,-3.3,17.5,-2.0,6.6%,0.1%
CC(C)C(=O)Nc1cccc(C(=O)Nc2nnc(C(C)C)s2)c1,0.9%,3.3,15.0,8.5,-0.1,14.5%,9.3%
CN(Cc1cnccn1)Cc1nc(Cc2cccc(F)c2)no1,x,-0.2,1.2,15.8,0.0,10.2%,3.1%
CCC(C)(C)C(=O)Nc1ccc(C(N)=O)cc1,-1.9%,0.1,-4.0,-7.3,2.0,12.4%,0.8%
O=Cc1cccn1-c1c(C(=O)O)cnn1-c1ccccc1,0.1%,0.1,18.4,-2.0,11.1,7.4%,-0.1%
Cc1ccc(SCC(=O)Nc2cccc(-c3nc4cc(Cl)ccc4o3)c2C)cc1,4.3%,2.2,x,-3.2,x,x,17.7%
O=C(c1cc(COc2cccc(C(F)(F)F)c2)on1)N1CCC(c2ccncc2)CC1,0.9%,0.3,7.4,12.6,x,1.7%,-0.7%
CCCCOc1ccc(OCCCN2CCOCC2)cc1,-2.8%,0.1,-2.1,1.0,2.2,-5.1%&-9.1%&11.6%,0.3%
Cc1cc(C)c(S(=O)(=O)N(C)CC(N)=O)c(C)c1,-0.8%,0.4,-19.2,15.2,5.4,u,1.6%[38.3 µM]
CCCCC(=O)Nc1nc2c(OC)cc([N+](=O)[O-])cc2s1,1.5%,2.3,-5.3,15.9,1.9,13.2%,2.9%
COc1ccccc1CNC(=O)C(=O)c1cn(CC(=O)N2CCCC2)c2ccccc12,-1.2%,1.4,-1.0,-1.0,x,8.1%,-0.6%
Cc1ccccc1CNC(=O)CCS(=O)(=O)c1cc2c3c(c1)CCN3C(=O)CC2,1.8%,-1.0,x,-5.0,x,x,2.9%
Cc1cc(C(=O)NCC(c2ccco2)N2CCCC2)c2ccccc2n1 (stereo not drawn),0.5%,-0.1,4.0,-11.2,x,x,-0.9%
Cc1ccc(N(Cc2cc3ccc(C)cc3[nH]c2=O)S(=O)(=O)c2ccccc2)cc1,x,2.2,24.5,-11.4,12.2,6.5%,10.2%
Fc1ccc(N2CCN(Cc3cnc(Oc4ccc(Br)cc4)s3)CC2)cc1,-3.9%,1.4,-0.4,4.2,3.0,u,3.7%
Cc1cn([C@H]2C[C@H](O)[C@@H](CNCc3ccc4ncccc4c3)O2)c(=O)[nH]c1=O,-0.3%,0.2,x,4.9,x,x,2.9%
N#Cc1ccc(CN2CC[C@@]3(CCCN(C(=O)c4cccc(F)c4)C3)C2)cc1,x,x,x,x,-2.4,-1.5%,-0.6%
COc1cccc(-c2cncnc2NCCc2c[nH]c3ccc(OC)cc23)c1,x,x,x,x,-1.6,u,-1.5%
CC(=O)c1ccc(S(=O)(=O)N2CCN(C(C)=O)CC2)cc1,u,1.0,9.4,-16.3,-3.4,13.0%,-0.2%
Nc1nonc1-n1nnc(C(=O)N/N=C/c2ccc(Br)cc2)c1-c1ccc2c(c1)OCO2,25.1µM*,0.3,14.0,-7.9,x,u,6.3%
Cc1ccc([N+](=O)[O-])cc1-c1[nH]c(-c2ccc(O)c(O)c2)nc1-c1ccccc1,-2.6%,0.1,-4.9,-13.4,-1.1,2.2%,-33.3%[inhibitor][38.3 µM]
Cc1ccc(S(=O)(=O)N(CC(=O)N2CCOCC2)C2CCCCC2)cc1,-0.2%,-1.2,13.0,16.0,0.9,7.5%,0.2%
CC(C)(C)c1ccc(S(=O)(=O)N2CCNC(=O)C2)cc1,x,-0.6,x,4.9,x,x,-0.8%
CC(C)Nc1ncnc2c1ncn2[C@H]1CN(Cc2ccc3c(c2)OCO3)C[C@@H](CO)O1,-2.8%,-0.2,x,x,x,x,-0.7%
CCCCc1c(C)nn(-c2nnc3c4ccccc4n(CC)c3n2)c1C,0.7%,0.0,-15.7,-3.1,2.1,2.6%,-1.1%
O=C(COc1ccccc1F)Nc1ccc2oc(-c3cccc(Cl)c3)nc2c1,u,1.3,x,u,x,x,5.5%
Fc1ccc(C2=Nn3c(nnc3-c3n[nH]c4c3CCC4)SC2)cc1,-0.3%,-0.1,-9.7,11.4,-2.3,-13.9%,9.6%
COCCCN1C(=O)C(CC(=O)NCc2cccs2)CC(C(=O)N(C)C)=C1C (stereo not drawn),-1.8%,0.4,x,-6.6,x,x,1.4%
O=C(Nc1ccc([N+](=O)[O-])cc1)Nc1ccc(Cl)cc1F,x,-0.3,-0.2,-14.6,1.2,0.5%,u
Clc1cccc(Oc2ncc(CN3CCOCC3)s2)c1,0.6%,-1.2,15.8,6.9,-0.3,4.9%,-0.8%
CCC1(c2ccc(F)cc2)NC(=O)N(CC(=O)Nc2cc(S(=O)(=O)N(C)C)ccc2Cl)C1=O (stereo not drawn),-1.4%,7.7,8.6,-4.6,-4.5,10.9%,9.8%
CS(=O)(=O)N(CC(=O)O)c1cccc(Cl)c1,-0.2%,0.3,21.1,-12.4,-1.0,19.7%,0.9%
CC(=O)Nc1cccc(C(=O)/C=C/c2ccc(N(C)C)cc2)c1,-4.1%,71.9*,-12.4,u,x,-19.3%,3.5%
OC1CSc2nc3ccccc3n2C1 (stereo not drawn),x,0.0,7.2,33.1,2.3,-1.0%,0.7%
CCOC(=O)C(Cc1ccnc2ccccc12)=NO,x,0.8,x,3.1,x,x,-1.9%
COc1ccc(C(=O)OC(COc2ccccc2)Cn2ccnc2)cc1 (stereo not drawn),0.3%,-0.9,14.7,-8.3,1.4,-1.5%,1.8%
O=C(Cn1cnc2c(nnn2Cc2ccccc2)c1=O)NCc1ccccc1Cl,2.0%,x,6.6,x,-0.9,-12.4%,1.4%
COc1ccc(O)c(C(=O)/C=C/c2cc3ccccc3o2)c1,-6.1%,0.1,-0.1,1.5,-2.7,12.0%,8.9%
CC1(C)CC2C1CCC1(C)OC2(C)CCC1O (stereo not drawn),x,x,x,x,-4.8,-6.4%,-0.2%
CCCCC1CC(/C(C)=N/NC(N)=O)OC1=O (stereo not drawn),-1.5%,-0.6,10.2,-5.5,-1.3,14.4%,-0.3%
CCCCc1cc(=O)oc2cc(C)cc(OCC(=O)NCc3cccnc3)c12,3.4%,-0.5,10.1,-3.5,x,15.8%,-0.6%

# (list continues)
SMILES,ClpP mod,TRPML1 ag,TRPV1 PAM,TRPML1 inh,Menin-MLL FL inh,Sfp inh,PINK1 expr mod
CC(C)C(NS(=O)(=O)c1ccc2c3c(cccc13)C(=O)N2)C(=O)O (stereo not drawn),4.5%,-0.1,11.1,28.4,-0.5,10.7%,2.1%
CCCCNC(=O)NCc1cnn(C)c1C,-3.0%,-0.7,-2.4,18.5,1.5,15.7%,0.8%
Cc1ccc(Nc2cc(-n3cccn3)ncn2)c(C)c1,-0.1%,0.3,-9.6,9.8,3.3,11.8%,-0.2%[38.3 µM]
CCCCCN(C(=O)CCC(=O)OCC(=O)N(C)c1ccccc1)c1c(N)n(CCCC)c(=O)[nH]c1=O,0.2%,0.0,-2.4,0.1,x,x,0.2%
COc1ccccc1N1CCN(S(=O)(=O)CCNC(=O)c2ccco2)CC1,-1.7%,-0.5,x,13.3,x,x,1.1%
Cn1c(=O)c(Oc2ccc(Cl)cc2)c(O)c2ccccc21,u,2.9,3.6,0.2,0.1,12.8%,2.2%
CC(C)(C)OC(=O)N1CCC(c2c(C(=O)N3CCN(c4ncccn4)CC3)cnn2-c2cccc(F)c2)CC1,-0.5%,-0.3,x,26.6,x,x,18.2%
Cc1ccc(S(=O)(=O)c2c(C)nn(-c3ccccc3)c2OC(=O)c2ccc(Br)o2)cc1,-1.6%,0.1,0.9,0.5,8.4,6.6%,-0.3%
